From PubChem BioAssay
PINK1 expr mod: modulators of PINK1 expression | AID 624263 | 410,000 compounds, 0.2% hits | Potency, µM (series often up to 76.6 µM), for inactives: at the highest dose activation (PINK1 increase), hits mostly activators | PINK1 immunofluorescence, high-content cytometry, 24 h; active = well fitted activation curve with a large enough effect; inconclusive = small, poorly fitted or top-dose-only effect; inactive = flat fitted curve, though single readings scatter; cell line not stated here;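 further: potency means the concentration at half of the fitted maximal effect; % of control where 0% means no effect; nearly all actives have a fitted effect of over 65% in size; a mitochondrial uncoupler was the plate control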
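PINK1 protein level read as immunofluorescence by microplate cytometer in a fixed, stained stable cell line after 24 h exposure to five compound concentrations, with CCCP as control.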
TRPML1 inh: inhibitors of human TRPML1 channel; AID 624415; 390,000 compounds, 0.02% hits; activity change, negative = inhibition, % (test concentration not listed); Q9GZU1; TRPML1-inducible cells, Ca2+ dye fluorescence, FDSS; hits give low values; inhibition of EC80 agonist-evoked calcium signal; in the data active means activity change below about -50%; inconclusive means about -30% to -50%; inactive means above about -30%;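 further: stimulus is agonist 54-4 at its EC80 concentration; on the % scale 0 is the no-effect control and ±100 the full control effect; compound concentration not given in the record; the text of the record puts the active cut at -80%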
Target sequence (Q9GZU1 whole entry, looked up): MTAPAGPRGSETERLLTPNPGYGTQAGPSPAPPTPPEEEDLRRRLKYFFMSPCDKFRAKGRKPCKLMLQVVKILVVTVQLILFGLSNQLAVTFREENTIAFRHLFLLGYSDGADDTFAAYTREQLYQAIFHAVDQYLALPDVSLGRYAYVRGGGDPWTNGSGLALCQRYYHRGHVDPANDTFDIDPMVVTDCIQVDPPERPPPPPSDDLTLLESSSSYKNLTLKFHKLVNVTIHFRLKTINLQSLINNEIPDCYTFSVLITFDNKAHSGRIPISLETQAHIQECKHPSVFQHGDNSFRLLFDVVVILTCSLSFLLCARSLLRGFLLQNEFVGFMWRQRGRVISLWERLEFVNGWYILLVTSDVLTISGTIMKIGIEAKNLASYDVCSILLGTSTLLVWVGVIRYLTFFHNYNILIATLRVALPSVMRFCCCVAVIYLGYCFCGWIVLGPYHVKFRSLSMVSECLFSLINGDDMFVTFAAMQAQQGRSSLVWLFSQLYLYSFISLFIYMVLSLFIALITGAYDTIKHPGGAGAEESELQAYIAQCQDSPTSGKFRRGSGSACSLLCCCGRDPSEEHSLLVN
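TRPML1-DL cells, Tet-induced overnight (~16 h, 37 °C) at 1,500 cells/well, were loaded with Ca8 no-wash dye plus quencher for 45-90 min at room temperature. Compounds were pinned during FDSS kinetic reading; agonist 54-4 at EC80 (4 uM final) then added.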
Six1-Eya2 inh: inhibitors of human Six1/Eya2 interaction; Q15475+O00167; AID 651725; activity change, % (no concentration beside the values); AlphaScreen GST-Six1/His-Eya2 binding, biochemical; hits give low values; control for the full effect not named in the record; 360,000 compounds, 0.56% hits; in the data active = activity change below about -65%; inconclusive = about -30% to -65%; inactive = above about -30%; further: on the % scale 0 is the no-effect control and ±100 the full control effect
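Homogeneous AlphaScreen proximity assay pairing GST-Six1 with His-tagged Eya2 (added as 5X mix: 250 nM and 500 nM) in 50 mM Tris pH 8.0, 300 mM NaCl, 1 mM TCEP. Glutathione donor and nickel acceptor beads; 1 h, 37 °C, dark.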
D2 agonist: activates the human D2 dopamine receptor; P14416; 360,000 compounds, 0.084% hits; activation, % (no concentration beside the values); DiscoveRx PathHunter D2 beta-arrestin, luminescence, 90 min; 100% = 57 uM dopamine signal; in the data active = activation above about 40%; inconclusive = about 15% to 40%; inactive = below about 15%; further: compound concentration not given in the record; the text of the record calls up to 30% inactive
Target sequence (P14416 whole entry, looked up): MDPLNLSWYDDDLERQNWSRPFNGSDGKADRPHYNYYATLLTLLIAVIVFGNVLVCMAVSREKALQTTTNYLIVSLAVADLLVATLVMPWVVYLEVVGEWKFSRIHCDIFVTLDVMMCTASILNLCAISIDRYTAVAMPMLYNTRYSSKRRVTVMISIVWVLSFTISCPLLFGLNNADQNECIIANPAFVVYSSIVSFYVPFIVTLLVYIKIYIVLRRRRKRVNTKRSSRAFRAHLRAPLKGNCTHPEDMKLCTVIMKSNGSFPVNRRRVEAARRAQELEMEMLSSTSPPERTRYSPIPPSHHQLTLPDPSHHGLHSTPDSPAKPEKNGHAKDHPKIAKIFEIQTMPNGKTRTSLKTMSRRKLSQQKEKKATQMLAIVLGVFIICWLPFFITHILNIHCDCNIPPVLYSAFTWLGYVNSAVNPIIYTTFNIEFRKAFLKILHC
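Agonist mode: compounds alone added to overnight-plated D2 PathHunter cells for 90 min at 37 C, with 57 uM final dopamine (EC100) defining full response. Beta-arrestin recruitment detected by chemiluminescent reagent, read after 1 h at ambient temperature.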
D2 potentiator: positive allosteric modulators of human D2 dopamine receptor; P14416; DiscoveRx D2 beta-arrestin cells, luminescence, 90 min; 100% = 57 uM dopamine signal; potentiation, % (test concentration not listed); 360,000 compounds, 0.23% hits; AID 624464; active = potentiation of 50% or more; inconclusive = 30% to 50%; inactive = 30% or less;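 further: compound concentration not given in the record; tested on top of an EC20 dose of dopamine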
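PathHunter D2 cells, attached overnight at 37 deg C, received compound in DMSO plus dopamine at EC20 (50 nM final) for 90 min at 37 deg C. Beta-arrestin recruitment was read as luminescence after 1 h with detection reagent at ambient temperature.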
TRPML1 agonist: activates the human TRPML1 channel; Q9GZU1; TRPML1-expressing cells, Ca2+ dye fluorescence, FDSS; host cell line not named in the record; reference of the full effect not given here; activation, % (no concentration beside the values); 410,000 compounds, 0.12% hits; in the data active = activation above about 50%; inconclusive = about 30% to 50%; inactive = below about 30%; further: 0% is about no effect; the text of the record puts the active cut at 80%
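Tetracycline-induced TRPML1-DL cells are seeded and incubated overnight before loading with a no-wash Ca2+ dye and quencher. Agonist activity is taken from the 110 s fluorescence read following compound pin-transfer on an FDSS, before EC80 54-4 challenge.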
* marks the source's active call; other numbers are inactive results; ? = inconclusive; · = no result given; [ ] = dose if it differs, or a comment. Outcome played no part in choosing rows, and some 1% of all compounds hit somewhere here.

compound	Six1-Eya2 inh	TRPML1 agonist	TRPML1 inh	D2 potentiator	PINK1 expr mod	D2 agonist
Cc1ccc(C)c(NC(=O)CN(C)C(=O)c2cccc(S(=O)(=O)N3CCCC3)c2)c1	7	-0.6	9	-16	0.6%	-6.5
CN(C)S(=O)(=O)N1CCN(S(=O)(=O)c2ccc(F)cc2)CC1	0	0.7	-6	4	?	-0.1
O=C1C2C3c4ccccc4C(c4ccccc43)C2c2nc3ccccc3n21 (configuration not stated)	2	6.7	69	11	2.4%	0.2
O=C(N/C(=C/c1ccc(Br)cc1)C(=O)N1CCCC1)c1cccs1	1	1.2	-3	-3	3.3%	?
CC(Sc1nc2ccc(C(=O)c3ccccc3)cc2[nH]1)C(=O)O (configuration not stated)	-2	0.2	-17	-6	2.3%	3.8
COc1cccc(CNC(=O)Cn2nc(C)n3c(cc4cc(C)ccc43)c2=O)c1OC	·	-0.2	-17	·	1.5%	·
CCc1c(C)nc2cc(-c3cccs3)[nH]n2c1=O	-28	2.0	7	-7	1.4%	-0.6
Cc1ccc(-c2nc(S(=O)(=O)c3ccccc3)c(N3CCN(c4ccccc4)CC3)o2)cc1	·	-0.2	-1	·	-0.6%	·
Fc1ccccc1CSCc1nc2ccccc2[nH]1	1	-0.6	2	-15	1.3%	-3.9
CC1(C)CC(=O)C2=C(C1)Oc1ncn(CCCn3ccnc3)c(=N)c1C2c1ccccc1 (configuration not stated)	-1	0.0	-18	-3	-3.0%[38.3 µM]	1.7
COc1ccccc1OCC(=O)N(Cc1ccc(Cl)cc1)CC1CCCO1 (configuration not stated)	·	-0.2	-3	·	-0.5%	·
CCOC(=O)c1ccc2c(c1)n(CC)c(/C=C/Nc1ccccc1)[n+]2CC	-8	-0.2	9	-28	-6.1%[38.3 µM]	-2.5
Cn1ccnc1SC(C(=O)O)c1ccccc1 (configuration not stated)	8	-0.8	19	-26	0.4%	-2.2
CC(=NO)C1CCC2C3CCC4CC(=NO)CCC4(C)C3C(C)(O)CC12C (configuration not stated)	3	-0.3	-12	-16	-4.1%	1.3
CCCN(CCC)CCNC(=O)c1cc2c(=O)n(CC)c3ccccc3c2s1	1	-0.3	-6	-14	-0.1%	-0.8
CCC(C)C(NC(=O)c1ccccc1NC(=O)c1ccc(OC)cc1)C(=O)NCc1ccco1 (configuration not stated)	-1	-0.5	10	-12	-6.3%[38.3 µM]	-0.3
CC(=O)c1ccc(NC(=O)CSc2nc(C)cc(C)c2C(N)=O)cc1	4	0.4	-13	-3	3.0%	0.1
CC(C)NC(=O)c1ccc2c(c1)N(Cc1cccc(Cl)c1)C(=O)c1ccccc1S2=O (configuration not stated)	·	-0.2	-6	·	2.4%	·
Cc1ccc(C(=O)O/N=C/C2=C(Cl)c3ccccc3CC2)cc1	-2	-0.6	3	1	8.5%	-3.3
Cc1c(Cl)cccc1N1C(=O)CC(NNC(=O)c2ccc3c(c2)OCO3)C1=O (configuration not stated)	1	-0.2	-10	-1	-1.9%	-4.8

compound	Six1-Eya2 inh	TRPML1 agonist	TRPML1 inh	D2 potentiator	PINK1 expr mod	D2 agonist
CCC[C@@H](CN1CCC[C@H]1CN1C(N)=NC[C@@H]1Cc1ccccc1)N1C[C@@H](Cc2ccccc2)N(CCc2ccc(Cl)c(Cl)c2)C1=N	-5	-0.1	-11	-33	1.9%	-2.3
CC[C@]12c3[nH]c4ccc(Cl)cc4c3CCN1C(=O)[C@@H](CC(=O)NCCCn1ccnc1)C[C@@H]2C(=O)N1CCN(C(=O)c2ccco2)CC1	-7	-0.1	-17	-5	-0.3%	-2.8
CN[C@H]1C[C@H]2c3[nH]c4ccccc4c3CCN2C(=O)[C@H]1[C@H](C)O	-3	0.3	-11	-1	-0.5%	-9.8
COc1ccc(S(=O)(=O)NCCc2sc(-c3cccnc3)nc2C)cc1OC	·	0.8	7	·	-1.1%	·
CC1=C(c2ccc(C)c(C)c2)S(=O)(=O)N=C1N1CCC(C(=O)NCc2ccccc2C)CC1	·	3.7	-9	·	14%	·
CN1C(=O)Cc2cc(S(=O)(=O)Nc3ccc(N4CCOCC4)cc3)ccc21	3	1.2	1	3	1.5%	5.7
Cc1cc(Br)ccc1SCC(=O)OCC(O)=C(C#N)c1nc2ccccc2[nH]1	2	0.9	3	8	8.5%	-0.6
Cc1cc(NC(=O)CSc2ccccn2)cc(NC(=O)CSc2ccccn2)c1	-20	-1.1	5	-9	1.9%	-4.4
CC(=O)c1ccc(S(=O)(=O)NCCC(=O)OCC(=O)N(Cc2ccccc2)C(C)(C)C)cc1	9	1.3	21	-7	0.7%	0.3
O=C(c1ccc(-c2ccccc2Cl)o1)N1CCCCCCC1	-3	1.6	5	-2	11%	0.7
Cc1ccc(CNC(=O)NCc2noc3ccc(C)cc23)cc1	·	0.6	31	·	-1.0%	·
CN1CCN(NC(=O)c2cc(-c3ccc(Br)s3)nc3ccccc23)CC1	4	0.7	-1	-8	-0.9%	-3.7
N#Cc1cnn(-c2ccccc2)c1NC(=O)CN1CCOCC1	2	0.3	?	-3	-0.4%	-4.0
O=C1C(Cl)=C(N2CCCC2)C(=O)N1c1ccccc1F	17	1.9	2	0	5.1%	1.6
CCOC(=O)C1CCN(C(=O)COC(=O)c2ccc([N+](=O)[O-])o2)CC1	-4	1.2	0	1	0.8%	?
N#CC1=C(S)N(c2ccccc2)C2(CCCCC2)NC1=O	2	0.8	-4	-28	2.5%	-0.5
CCCS(=O)(=O)NC(=O)C1(C)CCCN(C(=O)c2nc(C)oc2C)C1 (configuration not stated)	0	-0.2	·	0	0.8%	-1.4
COc1ccc(NC(=S)N(CCC(C)C)C(C)c2ccncc2)cc1 (configuration not stated)	0	0.6	-1	-2	4.5%	-1.9
O=C(Nc1nnc(-c2ccncc2)o1)C1CCCCC1	?	1.6	-8	-11	-0.9%	-1.8
Cc1ccc2cc(C3CC(c4cccs4)=NN3S(C)(=O)=O)c(Cl)nc2c1 (configuration not stated)	-4	-0.4	31	-20	1.2%	-5.2

compound	Six1-Eya2 inh	TRPML1 agonist	TRPML1 inh	D2 potentiator	PINK1 expr mod	D2 agonist
O=S(=O)(c1ccc(F)c(F)c1)N1CCN(S(=O)(=O)c2cccs2)CC1	-1	-0.4	5	-20	0.3%	-5.5
CC1(C(=O)Nc2cccc3cccnc23)CCN1Cc1ccc(-c2ccccc2)o1 (configuration not stated)	-17	0.4	·	-8	-0.1%	6.5
COc1ccc(NC(=O)CN(C)C(=O)c2cc(-c3cccs3)nn2-c2ccccc2)cc1	-14	0.1	-5	-30	0.2%	-5.6
CCOC(=O)CNC(=O)c1c(C)nn(-c2ccccc2)c1Cl	-20	-0.3	-8	22	1.3%	-6.2
COc1ccc(C(=O)c2ccc([N+](=O)[O-])cc2Cl)cc1	?	2.7	25	13	-1.1%	1.3
CC1(C)Cc2cccc(OCC(N)=O)c2O1	9	0.4	-11	-20	-1.2%	1.8
CCCCOC1(c2ccccc2)OC(=O)c2ccccc21 (configuration not stated)	20	2.4	13	-7	3.7%[38.3 µM]	-2.3
CCOC(=O)C1=C(C)NC(=O)NC1c1ccc(-c2ccc(Cl)cc2)o1 (configuration not stated)	2	-1.0	-28	-1	10%	-2.8
O=S(=O)(/N=C(/Nc1ccccc1)c1ccccc1O)c1ccccc1	3	2.0	-15	-6	-0.9%	7.2
O=C(c1cc(S(=O)(=O)N2CCOCC2)ccc1Cl)N1CCCCC1CO (configuration not stated)	6	-0.1	-8	-5	1.6%	2.0
CC1CCc2c(sc3nc(CN4CCOCC4)nc(NS(=O)(=O)c4cccc([N+](=O)[O-])c4)c23)C1 (configuration not stated)	-7	0.6	24	8	23%	-2.0
CCCCCCc1nc2ccccc2c(=O)n1N	20	1.3	-6	-20	1.8%	-1.0
CCC(=O)Nc1ccc(NCc2cccs2)cc1	10	-0.2	2	-5	2.1%	-0.6
C=C(C)COc1ccc(-c2[nH]ncc2-c2ccc(Br)cc2)c(O)c1	-3	-0.9	5	?	-2.6%	-1.9
O=C(C1CCN(S(=O)(=O)c2cccnc2)CC1)N1CCN(c2ccc(Cl)cc2)CC1	-7	-0.3	0	-13	-0.8%	-1.6
O=C1c2ccccc2C(=O)N1CCSc1nc2ccccc2c(=O)n1CCCN1CCOCC1	-1	-0.5	-5	-4	4.6%	-5.8
CCOC(=O)C1CCN(S(=O)(=O)c2ccc3c4c(cccc24)C(=O)N3)CC1	-9	-0.4	-12	-1	12%	-0.6
Cc1cc(C)cc(NC(=O)Nc2cccs2)c1	·	0.0	-2	·	-0.8%	·
CCCS(=O)(=O)N1CCN(Cc2ccc(OCc3ccccc3)c(OC)c2)CC1	4	1.1	25	-16	·	0.6
CC(C)NC(=O)c1ccccc1NC(=O)Cc1ccc(Cl)cc1	-12	1.0	-10	-19	·	-2.4

compound	Six1-Eya2 inh	TRPML1 agonist	TRPML1 inh	D2 potentiator	PINK1 expr mod	D2 agonist
CCCCN(C(=O)CC1CCCC1)c1c(N)n(CCC)c(=O)[nH]c1=O	-5	-0.8	-3	-2	-0.4%	-4.3
CCCC(C)NC(=O)c1nc(-c2ccccc2)n(-c2ccccc2)n1 (configuration not stated)	?	2.1	17	-11	-1.6%	-4.0
CCC(OC(=O)c1cccs1)C(=O)NCc1ccco1 (configuration not stated)	-4	-0.8	19	12	2.8%	-1.7
COc1ccccc1NS(=O)(=O)c1cc(NC(=O)c2cccc(S(=O)(=O)N(C)C)c2)ccc1N1CCOCC1	-10	0.4	1	-19	1.1%	-3.3
O=C(CN1C(=O)c2ccccc2C1=O)OCCOCCN=C1NS(=O)(=O)c2ccccc21	-10	0.3	1	-2	1.5%	-4.0
COc1ccc(-c2c(-c3cc(OC)cc(OC)c3)n(C)c3ccc(-c4ccc(OC)nc4)cc23)cc1	-21	-0.7	-2	-7	13%	-2.9
COc1ccc([C@H]2CC(=O)C[C@@H](CCn3cc(-c4ccc(F)cc4)nn3)O2)cc1	-3	-0.9	·	·	0.0%	·

A second format for some results above.
Results follow in this order: Six1-Eya2 inh	TRPML1 agonist	TRPML1 inh	D2 potentiator	PINK1 expr mod	D2 agonist
CCC(OC(=O)c1cccs1)C(=O)NCc1ccco1 (configuration not stated)
 : -4	-0.8	19	12	2.8%	-1.7
COc1ccccc1NS(=O)(=O)c1cc(NC(=O)c2cccc(S(=O)(=O)N(C)C)c2)ccc1N1CCOCC1
 : -10	0.4	1	-19	1.1%	-3.3
O=C(CN1C(=O)c2ccccc2C1=O)OCCOCCN=C1NS(=O)(=O)c2ccccc21
 : -10	0.3	1	-2	1.5%	-4.0
COc1ccc(-c2c(-c3cc(OC)cc(OC)c3)n(C)c3ccc(-c4ccc(OC)nc4)cc23)cc1
 : -21	-0.7	-2	-7	13%	-2.9
COc1ccc([C@H]2CC(=O)C[C@@H](CCn3cc(-c4ccc(F)cc4)nn3)O2)cc1
 : -3	-0.9	·	·	0.0%	·
